# High-throughput results as filed in PubChem.
# Sfp PPTase inh – blocks B. subtilis Sfp PPTase activity | AID 1490 | Q9F4F7 | Potency, µM, for the others: max response, negative = inhibition, usual class: inhibitors | 3.5% of 310,000 active | Biochemical Sfp PPTase activity, qHTS; active = well fitted inhibition curve with a large enough effect; inconclusive = small, poorly fitted or top-dose-only effect, or another doubt; inactive = no such curve, though single readings can be large or run the other way;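 also: the enzyme is Sfp with the accession as filed and its product quenches rhodamine fluorescence; potency is read from the fitted curve at half-maximal effect; 0% = enzyme reaction without inhibitor and -100% = no enzyme wells; top concentration of the series not given in the record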
#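 Step 1, compound plus 15 nM Sfp-PPTase, 15 min, room temperature. Step 2, add rhodamine-CoA (5 uM) and BHQ-2-YbbR (12.5 uM). Step 3, read 525/598 nm fluorescence at 0 and 30 min.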
# TRPV1 potentiator – potentiators of human vanilloid receptor 1 (TRPV1); TRPV1-expressing cells, Fluo-8 calcium influx, capsaicin EC20 potentiation; host cell line not named in the record; control for the full effect not named in the record; AID 540277; 0.02% of 320,000 active; potentiation, % at 8.33 µM; Q8NER1; active means potentiation above 80%; inconclusive means 30% to 80%; inactive means below 30%; also: 0% is about no effect
#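 Fluo-8 calcium influx in TRPV1-expressing cells, kinetic read (ex 480/em 520 nm). Compound added and read 3 min for agonist activity, followed by capsaicin at EC20 final and 2 min further read for enhancement.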
# D2 potentiator – positive allosteric modulators of human D2 dopamine receptor; AID 624464; P14416; 0.23% of 360,000 active; potentiation, % (no concentration beside the values); DiscoveRx D2 beta-arrestin cells, luminescence, 90 min; 100% = 57 uM dopamine signal; active = potentiation of 50% or more; inconclusive = 30% to 50%; inactive = 30% or less;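 also: compound concentration not given in the record; tested on top of an EC20 dose of dopamine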
# Target sequence (P14416 whole entry, looked up): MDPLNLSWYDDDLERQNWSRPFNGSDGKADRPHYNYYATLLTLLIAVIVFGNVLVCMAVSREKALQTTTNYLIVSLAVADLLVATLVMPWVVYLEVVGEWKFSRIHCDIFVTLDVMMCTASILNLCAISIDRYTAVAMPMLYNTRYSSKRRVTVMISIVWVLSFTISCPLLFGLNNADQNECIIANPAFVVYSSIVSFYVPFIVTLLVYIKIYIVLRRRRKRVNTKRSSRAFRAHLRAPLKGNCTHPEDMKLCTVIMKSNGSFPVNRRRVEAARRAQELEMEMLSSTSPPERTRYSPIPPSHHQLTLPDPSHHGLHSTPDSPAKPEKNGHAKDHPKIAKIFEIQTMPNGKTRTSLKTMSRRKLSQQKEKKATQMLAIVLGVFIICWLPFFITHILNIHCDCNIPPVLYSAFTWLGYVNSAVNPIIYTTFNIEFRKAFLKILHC
#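 PathHunter beta-arrestin assay in DiscoveRx D2 cells. Compounds were added with an EC20 of dopamine (50 nM final) for 90 min at 37 deg C. Luminescence was read 1 h after detection reagent, with 57 uM dopamine as the EC100 control.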
# gsp agonist – activates gsp, the McCune-Albright syndrome mutation. AID 624287. gsp mutant cells, cAMP HTRF, 30 min; control for the full effect not named in the record. 0.13% of 340,000 active. Potency, µM (doses to about 76.9 µM), for the others: at the top dose activation (cAMP increase), usual class: activators; active = well fitted activation curve with a large enough effect; inconclusive = small, poorly fitted or top-dose-only effect, or another doubt; inactive = no such curve, though single readings can be large or run the other way; cell line not stated here;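 also: phosphodiesterase inhibitor Ro 20-1724 added with compounds to block cAMP breakdown; potency is read from the fitted curve at half-maximal effect; nearly all actives have a fitted effect of over 60% in size; about a fifth of the inactives were tested at one dose only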
#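 Cells stably selected in G418 were plated at 2000/well, grown 16-24 hr, then given compounds in DMSO with the PDE inhibitor […] (300 uM solution added) for 30 min at 37C; cAMP was read by HTRF.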
# Menin-MLL FL inh – menin-MLL binding inhibition, fluorescein peptide; Fluorescence polarization, fluorescein-MLL peptide displacement from menin; FP activity change, % at 61.4 µM; 290,000 tested, under 10 active; AID 1766; inconclusive = falling polarisation curve, or a change in total fluorescence; inactive = total fluorescence flat and polarisation flat or rising; no compound was filed as active; the % refers to the polarisation; negative = inhibition;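 also: % of control where 0% means no effect; inhibitors lower the polarisation; unlabelled MLL peptide was the positive control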
# ClpP mod – qHTS Assay for Activators of ClpP. ATP-dependent Clp protease proteolytic subunit (Bacillus subtilis (strain 168)), P80244. purified B. subtilis ClpP, FRET peptide cleavage, 20 min. Potency, µM (highest dose often 57.5 µM), without a hit: top-dose activity change, negative = active. 1.9% of 340,000 active. AID 651965, 2013; active = well fitted falling curve with a large enough effect; inconclusive = small, poorly fitted or top-dose-only effect; inactive = no such curve, though single readings can be large or run the other way; also: potency is read from the fitted curve at half-maximal effect; the source files actives as falling curves though it sought activators and does not explain the sign; nearly all actives have a fitted effect of over 65% in size; many hits overshoot -100%
# Target sequence (P80244 whole entry, looked up): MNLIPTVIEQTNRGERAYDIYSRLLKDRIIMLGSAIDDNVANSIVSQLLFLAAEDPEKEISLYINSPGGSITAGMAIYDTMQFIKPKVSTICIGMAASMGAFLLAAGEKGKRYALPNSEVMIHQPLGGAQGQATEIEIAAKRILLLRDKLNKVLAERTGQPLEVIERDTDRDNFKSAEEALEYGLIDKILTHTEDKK
#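 Buffer: 100 mM Tris/HCl pH8, 100 mM KCl, 0.05% low protease BSA, 2.5% glycerol, 0.01% Tween-20. ClpP 10 microg/mL final; 20 min RT; delta FRET normalized to ADEP and DMSO controls.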
# gsp antagonist – antagonists of gsp mutant (McCune-Albright syndrome); Potency, µM (titrated, usually from 76.9 µM), without a hit: at the highest dose activity change, negative = inhibition, most hits filed as inhibitors; 0.4% of 340,000 active; AID 624288; gsp-mutant cells, cAMP HTRF, 30 min; control for the full effect not named in the record; active = falling curve of any shape with a large fitted effect; inconclusive = falling curve, mostly with a smaller effect; inactive = flat or rising curve; cell line not stated here;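 also: intracellular cAMP measured with PDE inhibitor Ro 20-1724 present during compound exposure; potency is read from the fitted curve at half-maximal effect; % is scaled to controls: 0 for no effect and ±100 for the full control effect; nearly all actives have a fitted effect of over 65% in size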
#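 Measurement of cellular cAMP by homogeneous time-resolved fluorescence following a 30 min compound exposure at 37C. The PDE inhibitor […] was present throughout; the assay buffer was DPBS with 0.05% BSA and 0.005% Tween 20.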
# Numbers without * were called inactive; ? = inconclusive; · = no result given; & = joins results of further samples; [ ] = dose if it differs, or a comment. Rows are unselected; 5.1% or so of the library scored in one or more.
SMILES,Sfp PPTase inh,TRPV1 potentiator,D2 potentiator,gsp agonist,Menin-MLL FL inh,ClpP mod,gsp antagonist
CC1(C)Cc2nc3oc4c(NCCCN5CCOCC5)ncnc4c3cc2CO1,0%,1,-3,?,-1.0,·,-2%
Cc1cccn2c(=O)c3cc(C(=O)N4COCC4(C)C)n(Cc4ccccc4)c3nc12,·,·,4,-28%[15.4 µM],·,·,-1%
CCCNc1cc(=O)n(C)c(=O)n1C,10%,-1,-4,-1%,-0.1,-1.8%,-2%
Cc1cc(C)nc(SCc2ccccc2C#N)n1,-9%,15,-1,-40%,-0.3,0.0%,-14%
COc1ccc(C)cc1NC(=O)CNC(=O)c1sc2ccccc2c1Cl,·,8,-6,2%[15.4 µM],·,-2.0%,-1%
CC1=CC(C)(C)NC(=S)N1c1ccc(C)c(C)c1,22%,1,-8,16%[15.4 µM],0.3,-0.5%,1%
COc1ccc(NC(=O)c2ccccc2)cc1NS(=O)(=O)c1ccc(F)cc1,4%,-5,-5,-77%[inhibitor],6.0,1.3%,8%
COc1cccc(C=Nc2ccccc2C#N)c1O,2%,0,-14,6%,10,9.9%,-6%
CC(=O)Nc1ccc(S(=O)(=O)N2CCN=C2c2ccccc2)cc1,6%,11,-1,-24%,·,1.1%,0%
Cc1cc(Nc2ccc(Br)cc2)n2nc(C)nc2n1,6%,-3,4,-37%[inhibitor],0.9,0.1%,-4%
N#Cc1ccccc1S(=O)(=O)N1CCN(C(=O)[C@@H]2CCCN2C(=O)c2cccs2)CC1,·,-5,-6,25%,·,-0.8%,-4%
O=C(O)COc1ccccc1/C=N/NC(=O)Cc1ccccc1,8%,4,-3,?,4.3,-4.4%,14%
Cc1cccnc1NC(=O)C(C)Oc1ccccc1 (stereo unspecified),6%,?,-10,-5%,0.7,-2.1%,-11%
CC(=O)Oc1cccc(/C=C2\C=C(c3ccc(C)cc3)OC2=O)c1,-22%,-2,-23,0%[15.4 µM],0.7,0.1%,5%
Cc1ccc(S(=O)(=O)c2cc3c(=O)n4ccccc4nc3n(C3CCCCC3)c2=N)cc1,6%,-1,-16,13%[15.4 µM],·,-6.9%,14%
CC1(C)CC(=O)c2c(O)cc(OCC(=O)Nc3ccc(S(N)(=O)=O)cc3)cc2O1,16%,-14,-16,·,-1.6,-13%,-11%
CSc1c(CN2CCN(C)CC2)c2ccccc2n1C,·,·,-19,-3%[15.4 µM],·,·,2%
CCCn1nnnc1SCC(=O)N1C(C)CCCC1C (stereo unspecified),-5%,-6,-1,4%[15.4 µM],·,·,-3%
CN1CCC(N(C)CC(=O)Nc2ccc3c(c2)OC(F)(F)O3)CC1,50µM*,·,-4,-4%[15.4 µM],1.1,·,-13%
CN(C)S(=O)(=O)c1cccc(NC(=O)Cc2ccc(Cl)cc2)c1,-8%,11,-18,8%,5.9,1.9%,-4%
COc1ccc(C(=O)NC2CCCc3ccccc32)cc1[N+](=O)[O-] (stereo unspecified),12%,-5,-22,2%[15.4 µM],0.8,-1.6%,-8%
COc1ccc(CNC(=O)CCS(=O)(=O)c2ccc3c(c2)NC(=O)CS3)cc1,10%,9,-4,17%,2.4,-1.6%,4%
COc1ccc(N2C(=O)C3C(C2=O)C(C(=O)c2ccccc2)N2CCCC32)cc1 (stereo unspecified),50µM*,9,-5,15%,?,·,-16%
CCOc1ccc2ccccc2c1C(=O)N[C@@H]1C(=O)N2[C@@H]1SC(C)(C)[C@@H]2C(=O)O,2%&14%,0&2,-3&-9,·,-3.3,-4.3%&-9.1%,-9%&22%
CC(C)c1cc(=O)n2[nH]c(SCc3ccccc3)nc2n1,8%,-3,5,8%,-3.2,·,-9%
# Other results:
SMILES,Sfp PPTase inh,TRPV1 potentiator,D2 potentiator,gsp agonist,Menin-MLL FL inh,ClpP mod,gsp antagonist
O=C1c2ccc(-c3ccc(Cl)c(C(F)(F)F)c3)cc2S(=O)(=O)c2cccc(C(=O)N3CCN(c4ncc(Br)cn4)CC3)c21,·,·,-17,·,·,-0.7%,-2%
CCC(C)NC(=O)c1cnn2c1NC(c1cccs1)CC2C(F)(F)F (stereo unspecified),4%,4,-5,-35%[inhibitor],-7.2,-0.4%,-2%
CC(C)(C)c1nnc2sc(SCC(=O)N3CCCCC3)nn2c1=O,·,·,7,6%,·,2.7%,-15%
Clc1cc2nc3ccccn3c2cc1Cl,-6%,-21,-4,-1%,4.1,8.9µM*,-12%
Cc1ccccc1Nc1nnc(SCC2CCCCO2)s1 (stereo unspecified),12%,-7,-15,?,5.4,·,-1%
O=c1ccc(Br)c[nH]1,-3%,-11,-4,6%,0.2,-3.0%,6%
O=C(NCc1ccco1)c1ccc(CN2CCOCC2)cc1,3%,0,-7,-1%,4.1,-2.0%,12%
COC(=O)c1ccc(COC(=O)CCS(=O)(=O)c2ccc(C)cc2)cc1,8%,-2,-2,-18%[15.4 µM],-0.9,·,-2%
Cc1cc(-c2nnc(CCC(=O)NCc3cc(F)cc(C(F)(F)F)c3)o2)no1,14%,10,-28,-3%[15.4 µM],·,28µM*,5%
O=C(Nc1ccc(Nc2ccccc2)cc1)Nc1ccccc1Cl,11%,-19,-13,-21%,-3.7,-8.7%,?
CCOC(=O)c1csc(-c2ccc3c(c2)CCO3)n1,14%,-4,-2,?,3.3,·,-2%
COc1ccccc1C(=O)c1nc2ccccc2n1C,12%,30,5,11%,-22,-2.7%,15%
O=C1COc2ccc(C(=O)COC(=O)/C=C/c3ccco3)cc2N1,·,-8,-11,3%,·,0.8%,-2%
O=C(COC(=O)/C=C/C(=O)N1CCN(c2ccccc2)CC1)NC(c1ccccc1)c1ccccc1,-27%,4,-1,-69%[inhibitor],?,-0.8%,-8%
COc1ccc(/C=C2\SC(=O)N(CCNC(=O)C3CCN(S(=O)(=O)c4cccs4)CC3)C2=O)cc1,7%,12,10,24%,0.2,1.5%,-17%
O=C(c1cnn2c(C(F)F)cc(-c3ccccc3)nc12)N1CCSCC1,9%,-11,7,26%,2.1,-4.4%,2%
COc1ccc(NC(=O)C2C3C=CC4(O3)C2C(=O)N(CCN2CCCCC2)C4C(=O)NC2CCCC(C)C2C)cc1 (stereo unspecified),-9%,-4,-9,31%,-9.9,·,-17%
CC(C)(C)[C@H]1C=C(C(=O)N2CCN(Cc3ccc4c(c3)OCO4)CC2)O[C@@H](OCc2ccc(CO)cc2)C1,-16%,11,-20,-4%,-3.8,-2.3%,-10%
COCC(C)n1c(C)cc(C(=O)COC(=O)c2n[nH]c3ccccc23)c1C (stereo unspecified),11%,5,8,5%,1.9,2.4%,2%
O=C(CN1C(=O)NC2(CCCc3ccccc32)C1=O)NCC(F)(F)F (stereo unspecified),15%,?,-1,11%,-0.8,·,0%
CC(C)CC(=O)Nc1nnc(CSCc2ccc(F)cc2)s1,19%,8,-13,-1%,1.9,-1.5%,-1%
COc1ccccc1OCC(=O)NNc1c2ccccc2nc2ccccc12,5%,5,5,6%,2.9,7.2%,?
COc1cc(OC)cc(C(=O)OCC(=O)Nc2sccc2C(N)=O)c1,5%,1,0,-27%,2.3,-5.0%,-18%
c1ccc(CSc2nnc(-c3c[nH]c4ccccc34)o2)cc1,?,12,-7,10%,1.9,22%,-11%
CC1=C(C(=O)N2CCOCC2)CC(CC(=O)NC(c2ccccc2)c2ccccc2)C(=O)N1CCCN1CCCC1=O (stereo unspecified),·,·,9,-61%[inhibitor],·,0.9%,·
O=C(COc1ccc(Cl)cc1)Nc1nnc(-c2ccco2)o1,6%,12,4,33%[15.4 µM],-3.3,·,-57%
Cc1ccc(-n2c(C)cc(/C=C(\C#N)C(=O)NCC3CCCO3)c2C)cc1 (stereo unspecified),-13%,-16,-15,-25%,0.5,-4.4%,5%
CC(=O)OCC1OC(OC(C)=O)C(NC(=O)Cc2ccccc2)C(OC(C)=O)C1OC(C)=O (stereo unspecified),-5%,10,-2,-9%,-1.2,·,7%

# Taken from the listing (13 entries):
SMILES,Sfp PPTase inh,TRPV1 potentiator,D2 potentiator,gsp agonist,Menin-MLL FL inh,ClpP mod,gsp antagonist
O=C(c1cnn2c(C(F)F)cc(-c3ccccc3)nc12)N1CCSCC1,9%,-11,7,26%,2.1,-4.4%,2%
COc1ccc(NC(=O)C2C3C=CC4(O3)C2C(=O)N(CCN2CCCCC2)C4C(=O)NC2CCCC(C)C2C)cc1 (stereo unspecified),-9%,-4,-9,31%,-9.9,·,-17%
CC(C)(C)[C@H]1C=C(C(=O)N2CCN(Cc3ccc4c(c3)OCO4)CC2)O[C@@H](OCc2ccc(CO)cc2)C1,-16%,11,-20,-4%,-3.8,-2.3%,-10%
COCC(C)n1c(C)cc(C(=O)COC(=O)c2n[nH]c3ccccc23)c1C (stereo unspecified),11%,5,8,5%,1.9,2.4%,2%
O=C(CN1C(=O)NC2(CCCc3ccccc32)C1=O)NCC(F)(F)F (stereo unspecified),15%,?,-1,11%,-0.8,·,0%
CC(C)CC(=O)Nc1nnc(CSCc2ccc(F)cc2)s1,19%,8,-13,-1%,1.9,-1.5%,-1%
COc1ccccc1OCC(=O)NNc1c2ccccc2nc2ccccc12,5%,5,5,6%,2.9,7.2%,?
COc1cc(OC)cc(C(=O)OCC(=O)Nc2sccc2C(N)=O)c1,5%,1,0,-27%,2.3,-5.0%,-18%
c1ccc(CSc2nnc(-c3c[nH]c4ccccc34)o2)cc1,?,12,-7,10%,1.9,22%,-11%
CC1=C(C(=O)N2CCOCC2)CC(CC(=O)NC(c2ccccc2)c2ccccc2)C(=O)N1CCCN1CCCC1=O (stereo unspecified),·,·,9,-61%[inhibitor],·,0.9%,·
O=C(COc1ccc(Cl)cc1)Nc1nnc(-c2ccco2)o1,6%,12,4,33%[15.4 µM],-3.3,·,-57%
Cc1ccc(-n2c(C)cc(/C=C(\C#N)C(=O)NCC3CCCO3)c2C)cc1 (stereo unspecified),-13%,-16,-15,-25%,0.5,-4.4%,5%
CC(=O)OCC1OC(OC(C)=O)C(NC(=O)Cc2ccccc2)C(OC(C)=O)C1OC(C)=O (stereo unspecified),-5%,10,-2,-9%,-1.2,·,7%
